Vaccinia inh: Vaccinia orthopox stage-specific inhibition. Vaccinia-infected cells, mCherry/Venus stage reporter fluorescence; active compounds read low; some inactives read as strong as hits. 89,000 tested, 0.01% active. activity change (mCherry), % (no concentration beside the values);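 active = mCherry past -33% and 40 or more points under the early reporter, replicates agreeing; inconclusive = past -33% without that gap or agreement; tested in A549 cells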;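 note: scaled between vehicle wells and reference inhibitor wells; 23 nL library stock went into each well; one replicate is shown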
Vaccinia inh Venus: recorded beside Vaccinia inh, whose call it bears; activity change (Venus), %; measured here: Venus reporter, other viral stage;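 negative = less Venus signal; first of two replicates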
* hit, by the source's call; ? = inconclusive; nt = no result given. Not all compounds are listed; the hit share may differ from the screen's.

#	SMILES	Vaccinia inh	Vaccinia inh Venus
1	C[C@@H]1CN([C@H](C)CO)C(=O)c2cc(N(C)C)ccc2O[C@H]1CN(C)C(=O)Nc1ccccc1	9.1	6.7
2	CC(C)C(=O)Nc1ccc2c(c1)C(=O)N(C)[C@@H]1CC[C@H](CC(=O)Nc3ccccc3)O[C@H]1CO2	-15.7	-13.5
3	O=C(C[C@H]1C[C@@H]2c3cc(NC(=O)NC4CCCCC4)ccc3O[C@@H]2[C@H](CO)O1)NCc1ccccn1	6.4	5.2
4	CCCNC(=O)[C@H]1[C@H](CO)[C@H]2Cn3c(ccc(-c4ccc(F)cc4)c3=O)[C@H]2N1CC	11.3	6.5
5	C[C@@H]1CN([C@@H](C)CO)C(=O)Cc2cc(NC(=O)Nc3ccc4c(c3)OCO4)ccc2O[C@H]1CN(C)C(=O)Nc1cccc2ccccc12	1.0	12.2
6	C[C@H]1CN([C@@H](C)CO)C(=O)CCCn2nncc2CO[C@H]1CN(C)CC1CCCCC1	7.7	10.3
7	C[C@@H]1CCCCO[C@@H](CN(C)C(=O)Cc2ccccc2)[C@@H](C)CN([C@@H](C)CO)C(=O)c2cc(NS(=O)(=O)c3cccs3)ccc2O1	3.1	-4.2
8	O=C(c1ccccn1)N1CC2(C1)[C@H](c1ccccc1)[C@H](CO)N2Cc1ccc(F)cc1	-2.4	3.0
9	COc1cccc(C(=O)N2C[C@@H]3[C@H](c4ccccc42)[C@@H](CO)N3Cc2ccccc2F)c1	-0.9	9.5
10	C[C@@H]1CN([C@H](C)CO)C(=O)Cc2cc(NC(=O)Nc3ccc(C(F)(F)F)cc3)ccc2O[C@@H]1CN(C)Cc1ccccc1	-32.9	-21.9
11	Cc1noc(C)c1NC(=O)N(C)C[C@@H]1OCCCC[C@@H](C)Oc2ccc(NC(=O)NC(C)C)cc2C(=O)N([C@@H](C)CO)C[C@H]1C	7.4	4.7
12	C/C=C/c1ccc([C@@H]2[C@@H](CO)N(C(C)=O)[C@H]2CN(C)C(=O)c2ccccn2)cc1	9.6	2.2
13	C[C@H]1CN([C@@H](C)CO)C(=O)c2c(c3ccccc3n2C)-c2ccccc2CO[C@@H]1CN(C)S(=O)(=O)c1ccc([N+](=O)[O-])cc1	?	nt
14	CO[C@H]1CN(C)C(=O)c2ccc(NC(=O)c3ccc4c(c3)OCO4)cc2OC[C@@H](C)NC[C@H]1C	-6.7	1.9
15	COCC#Cc1ccc([C@@H]2[C@H]3CN(Cc4cccnc4)CCCCN3[C@H]2CO)cc1	10.7	7.4
16	CO[C@H]1CN(C)C(=O)c2ccc(NS(=O)(=O)c3ccc(C)cc3)cc2OC[C@H](C)N(C(=O)NC(C)C)C[C@@H]1C	9.8	9.4
17	C[C@@H]1CCCCO[C@H](CN(C)Cc2ccc3c(c2)OCO3)[C@H](C)CN([C@@H](C)CO)C(=O)c2cc(NC(=O)Nc3ccc(C(F)(F)F)cc3)ccc2O1	?	nt
18	CCC(=O)Nc1ccc2c(c1)C(=O)N(C)C[C@H](OC)[C@@H](C)CN(Cc1cccnc1)[C@@H](C)CO2	-1.6	1.7
19	CC(=O)N1[C@H](CN(CC(C)C)C(=O)c2ccccn2)[C@@H](c2ccccc2)[C@@H]1CO	19.2	10.9
20	CC(C)NC(=O)N[C@H]1CC[C@H](CCNC(=O)C2CC2)O[C@@H]1CO	16.6	15.1

Next section:
#	SMILES	Vaccinia inh	Vaccinia inh Venus
21	COCC(=O)N1C[C@H]2[C@@H](c3ccccc31)[C@@H](CO)N2Cc1ccccc1F	6.7	-0.7
22	O=C(NCCN1CCOCC1)[C@]1(CCS(=O)(=O)c2ccccc2)N=C(c2ccc(OCCCO)cc2)O[C@@H]1c1ccccc1	-6.8	-9.3
23	C[C@H](CO)N1C[C@H](C)[C@H](CN(C)C(=O)Nc2ccc3c(c2)OCO3)Oc2c(NC(=O)C3CC3)cccc2C1=O	8.3	11.7
24	CN(C)C(=O)c1cccc(-c2ccc([C@@H]3[C@@H](C#N)N(C(=O)C4CCCC4)[C@@H]3CO)cc2)c1	2.4	1.7
25	CCC(=O)N1CC2(C1)[C@H](c1ccc(-c3ccc(F)cc3)cc1)[C@@H](CO)N2C(C)=O	-13.6	-10.3
26	COc1cccc(NC(=O)N2C[C@@H](O)COC[C@@H]3O[C@H](CC(=O)NCc4ccccc4F)CC[C@H]32)c1	15.4	10.0
27	O=C(Nc1cccc(Cl)c1)N[C@@H]1CC[C@H](CCNC(=O)C2CCCCC2)O[C@@H]1CO	-5.5	-0.8
28	O=C(NCC[C@@H]1CC[C@@H](NC(=O)C2CCC2)[C@H](CO)O1)c1cc(Cl)cc(Cl)c1	-11.7	-9.1
29	CC(C)NC(=O)Nc1ccc2c(c1)CC(=O)N([C@H](C)CO)C[C@H](C)[C@H](CN(C)Cc1ccc(Cl)c(Cl)c1)O2	-18.3	-14.3
30	COc1ccc(S(=O)(=O)Nc2cccc3c2O[C@@H](CN(C)C)[C@@H](C)CN([C@@H](C)CO)C3=O)cc1	-2.9	4.8
31	COCC#Cc1cnc2c(c1)C(=O)N([C@@H](C)CO)C[C@H](C)[C@H](CN(C)C(=O)c1cccnc1)O2	25.3	23.9
32	COc1ccc(-c2ccc([C@H]3[C@@H](CO)N4CCCCN(C(=O)c5ccc(F)cc5)C[C@H]34)cc2)cc1	?	nt
33	O=C(Nc1ccc(C(F)(F)F)cc1)N[C@H]1CC[C@H](CCNC(=O)c2ccccc2F)O[C@H]1CO	-11.5	-2.8
34	C[C@@H]1CCCCO[C@H](CN(C)Cc2ccc(Cl)c(Cl)c2)[C@@H](C)CN([C@H](C)CO)C(=O)c2cc(NC(=O)CCC(F)(F)F)ccc2O1	-28.3	-21.6
35	CC(C)NC(=O)N1[C@H](C#N)[C@H](c2ccc(C#CC3CCCCC3)cc2)[C@H]1CO	?	nt
36	O=C(CN1CCOCC1)NCC[C@H]1CC[C@H](NC(=O)Nc2ccccc2)[C@@H](CO)O1	8.8	8.9
37	C[C@H]1CN([C@@H](C)CO)C(=O)c2cc(N(C)C)ccc2O[C@H]1CN(C)S(=O)(=O)c1cn(C)cn1	-7.8	-0.3
38	COCC(=O)N1[C@@H](CO)[C@@H]2c3ccccc3N(C(=O)c3ccccc3)C[C@@H]21	2.1	4.1
39	Cc1ccc(S(=O)(=O)N(C)C[C@H]2Oc3ccc(NS(=O)(=O)c4ccc(F)cc4)cc3CC(=O)N([C@@H](C)CO)C[C@H]2C)cc1	-14.2	-15.7
40	CCS(=O)(=O)Nc1ccc2c(c1)C(=O)N(C)C[C@@H](OC)[C@@H](C)CN(C(=O)C1CCC1)[C@@H](C)CO2	15.1	6.7

Quoted from the listing:
Under Vaccinia inh Venus, compound 2 shows -13.5
Under Vaccinia inh, compound 6 shows 7.7
Under Vaccinia inh Venus, compound 37 shows -0.3
Under Vaccinia inh Venus, compound 4 shows 6.5

New compounds follow:
#	SMILES	Vaccinia inh	Vaccinia inh Venus
41	COc1cccc(C(=O)Nc2ccc3c(c2)C(=O)N(C)[C@H]2CC[C@@H](CC(=O)NCCCN4CCOCC4)O[C@H]2CO3)c1	7.8	8.8
42	C[C@@H]1CCCCO[C@@H](CN(C)S(C)(=O)=O)[C@H](C)CN([C@H](C)CO)C(=O)c2cc(N(C)C)ccc2O1	8.7	14.9
43	COc1ccccc1NC(=O)N[C@H]1CC[C@@H](CCn2cc(-c3cccnc3)nn2)O[C@H]1CO	7.0	10.4
44	COc1cccc(-c2ccc([C@@H]3[C@H]4CN(C(=O)c5cccnc5)CC(=O)N4[C@H]3CO)cc2)c1	-1.9	5.4
45	CC(C)C#Cc1cnc2c(c1)C(=O)N([C@@H](C)CO)C[C@@H](C)[C@@H](CN(C)C(=O)c1cccc(F)c1)O2	21.3	13.2
46	Cc1ccc(S(=O)(=O)N(C)C[C@@H]2Oc3ccc(NC(=O)CCC(F)(F)F)cc3C(=O)N([C@H](C)CO)C[C@@H]2C)cc1	-19.0	-16.6
47	C[C@H](CO)N1C[C@H](C)[C@@H](CN(C)S(=O)(=O)c2cn(C)cn2)Oc2cc(C#Cc3ccc(F)cc3)ccc2S1(=O)=O	?	nt
48	CCS(=O)(=O)N(C)C[C@@H]1N[C@H](CO)[C@@H]1c1ccc(C#CC(C)C)cc1	2.4	9.0
49	C[C@H](CO)N1C[C@H](C)[C@H](CN(C)C(=O)Nc2cccc3ccccc23)Oc2c(NS(=O)(=O)c3ccc(Cl)cc3)cccc2C1=O	9.3	11.7
50	C[C@H](CO)N1C[C@H](C)[C@H](CN(C)CC2CCCCC2)Oc2ccc(NS(C)(=O)=O)cc2C1=O	15.0	11.1
51	C[C@H]1CN([C@@H](C)CO)C(=O)c2cc(C#CC3CC3)cnc2O[C@H]1CN(C)Cc1cccc(C(=O)O)c1	7.5	-0.5
52	C[C@@H]1CN([C@@H](C)CO)C(=O)c2cccc(NS(=O)(=O)c3ccc(F)cc3)c2O[C@H]1CN(C)C(=O)Nc1ccc(F)cc1	18.3	7.6
53	C[C@H](CO)N1C[C@H](C)[C@H](CN(C)S(=O)(=O)c2ccc(F)cc2)Oc2ccc(NC(=O)Nc3cccc4ccccc34)cc2C1=O	13.5	-6.2
54	CCC(=O)NC[C@@H]1[C@H](c2ccccc2)[C@H](CO)N1C(=O)C1CC1	4.5	7.3
55	CCCNC(=O)N1CC2(C1)[C@@H](c1ccccc1)[C@@H](CO)N2Cc1ccc(Cl)cc1	-11.7	-1.3
56	CCC(=O)N1CC2(C1)[C@@H](c1ccccc1)[C@@H](CO)N2Cc1cccc(Cl)c1	8.8	6.8
57	C[C@@H]1CCCCO[C@@H](CN(C)C(=O)c2ccncc2)[C@H](C)CN([C@H](C)CO)C(=O)c2cc(NC(=O)Cc3ccccc3)ccc2O1	13.8	-1.1
58	O=C(NCc1ccccc1)[C@H]1[C@H](CO)[C@H]2Cn3c(ccc(-c4cccc(F)c4)c3=O)[C@@H]1N2	-1.3	1.8
59	C[C@H]1CCCCO[C@@H](CN(C)C)[C@@H](C)CN([C@@H](C)CO)C(=O)c2cc(NS(C)(=O)=O)ccc2O1	8.9	8.6
60	C[C@H](CO)N1C[C@H](C)[C@H](CN(C)S(C)(=O)=O)Oc2ccc(NC(=O)c3ccncc3)cc2CC1=O	7.3	1.4

Entries by screen from above.
Compounds 44–50 in Vaccinia inh Venus: 5.4, 13.2, -16.6, nt, 9.0, 11.7, 11.1
Compounds 44–50 in Vaccinia inh: -1.9, 21.3, -19.0, ?, 2.4, 9.3, 15.0

(further entries)
#	SMILES	Vaccinia inh	Vaccinia inh Venus
61	CC(C)NC(=O)Nc1ccc2c(c1)C(=O)N([C@@H](C)CO)C[C@H](C)[C@@H](CN(C)Cc1ccc3c(c1)OCO3)O2	22.8	13.3
62	CCC(=O)NC[C@H]1[C@@H](c2ccccc2)[C@@H](CO)N1C(=O)C1CCC1	11.7	11.8
63	COc1ccc(S(=O)(=O)N(C)C[C@H]2OCCCC[C@@H](C)Oc3ccc(NC(=O)Nc4c(C)noc4C)cc3C(=O)N([C@@H](C)CO)C[C@@H]2C)cc1	1.7	-3.3
64	COc1cccc(C(=O)Nc2ccc3c(c2)C(=O)N(C)[C@H]2CC[C@H](CC(=O)NCC4CC4)O[C@@H]2CO3)c1	15.0	3.6
65	C[C@@H](NC(=O)[C@H]1[C@H](CO)[C@H]2Cn3c(ccc(C4=CCCC4)c3=O)[C@@H]1N2C(=O)C1CC1)c1ccccc1	9.0	7.1
66	O=C(CCN1CCCCC1)N[C@@H]1CC[C@H](CCn2cc(-c3ccccc3)nn2)O[C@@H]1CO	-8.9	-8.2
67	C[C@@H]1CN([C@H](C)CO)C(=O)c2cc(NC(=O)C3CC3)ccc2O[C@H]1CN(C)Cc1ccc(C(=O)Nc2ccccc2N)cc1	0.0	5.9
68	CC=Cc1ccc2n(c1=O)C[C@@H]1[C@@H](CO)[C@H](C(=O)N[C@@H](C)c3ccccc3)N(C(=O)c3cnccn3)[C@H]21 (mixture of isomers)	11.5	5.4
69	C[C@@H]1CN([C@@H](C)CO)C(=O)c2cc(-c3ccc(F)cc3)cnc2O[C@@H]1CN(C)C(=O)Cc1ccccn1	-5.6	-1.8
70	Cc1ccccc1-c1ccc([C@@H]2[C@@H](CO)N3CCCCN(C(=O)Nc4ccccc4)C[C@@H]23)cc1	?	nt
71	C[C@H]1CN([C@@H](C)CO)C(=O)c2cccc(NC(=O)c3ccncc3)c2O[C@H]1CN(C)Cc1ccc(C(F)(F)F)cc1	6.6	4.6
72	C[C@@H](NC(=O)[C@H]1[C@H](CO)[C@H]2Cn3c(cccc3=O)[C@@H]1N2Cc1ccccc1)c1ccccc1	9.8	3.6
73	O=C(Nc1cccc(F)c1)N1CC(=O)N2[C@@H](CO)[C@H](c3ccc(Br)cc3)[C@@H]2C1	-10.0	-22.6
74	C[C@@H]1CN([C@@H](C)CO)C(=O)c2cc(NC(=O)NC3CCCCC3)ccc2O[C@@H]1CN(C)CC1CCCCC1	-22.7	-15.9
75	C[C@@H]1CCCCO[C@@H](CN(C)Cc2ccc(C(=O)O)cc2)[C@H](C)CN([C@H](C)CO)C(=O)c2cc(NC(=O)Nc3cccc4ccccc34)ccc2O1	11.4	7.7
76	CCCC#Cc1cnc2c(c1)C(=O)N([C@H](C)CO)C[C@H](C)[C@@H](CN(C)S(=O)(=O)c1cn(C)cn1)O2	6.2	12.2
77	C[C@@H]1CCCCO[C@@H](CN(C)C(=O)Cc2ccccc2)[C@H](C)CN([C@@H](C)CO)C(=O)c2cc(NC(=O)CCCCCC(=O)Nc3ccccc3N)ccc2O1	16.4	8.7
78	O=C(Nc1ccc2c(c1)OCO2)N[C@@H]1CC[C@H](CCNC(=O)C2CCCC2)O[C@H]1CO	8.9	12.5
79	COc1ccc(CN(C)C[C@H]2OCCCC[C@H](C)Oc3ccc(NS(=O)(=O)c4ccc(F)cc4)cc3C(=O)N([C@@H](C)CO)C[C@@H]2C)cc1	?	nt

Molecules above containing a cyano group:
#	SMILES	Vaccinia inh	Vaccinia inh Venus
24	CN(C)C(=O)c1cccc(-c2ccc([C@@H]3[C@@H](C#N)N(C(=O)C4CCCC4)[C@@H]3CO)cc2)c1	2.4	1.7
35	CC(C)NC(=O)N1[C@H](C#N)[C@H](c2ccc(C#CC3CCCCC3)cc2)[C@H]1CO	?	nt
